Methyltransferases = Primary Screen for Target Class Profiling of Small Molecule Inhibitors of Methyltransferases; purified enzyme, MTase-Glo SAH luminescence; hits give low values; calls only at 40 µM; 25,000 compounds, 3.9% hits; AID 1745853, 2022; active = -50% or lower on at least one of six enzymes; inconclusive = the cases between; inactive = as a rule above -30% on all six;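 further: enzymes were COMT GAMT GNMT HNMT NNMT and PNMT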
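Each enzyme was reacted with SAM and its substrate, with compounds tested once at 40 uM; SAH formed was read by MTase-Glo luminescence.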
Calls only; i = inactive; ? = inconclusive; + = active, no number; ! = a repeat was not active. On the % scale 0 is the no-effect control and ±100 the full control effect. The list is partial; the hit share may differ from the screen's.

SMILES | Methyltransferases
Cn1c(=O)n(C)c2cc(S(=O)(=O)Nc3cccc(C(F)(F)F)c3)ccc21 | i
COCCCN1C(=O)c2cc3sccc3n2CC1(C)C(=O)NC1CCCCC1 (stereo not given) | i
CCCN1C(=O)c2c(C(=O)NCCc3ccc(OC)c(OC)c3)ncn2CC1(C)C(=O)NC1CCCC1 (stereo not given) | i
CCc1cccc(NC(=O)Cn2nc3n(CC(C)C)c(=O)c4ccc(C(=O)NC(C)C)cc4n3c2=O)c1 | i
Cc1ccc(-c2noc(-c3cccc(S(=O)(=O)N4CCN(c5cc(C)ccc5C)CC4)c3)n2)cc1 | i
CCOC(=O)c1cc2n(n1)CC(C)(C(=O)NCc1ccccc1OC)N(c1ccc(CC)cc1)C2=O (stereo not given) | i
Cc1csc(CN(C)C(=O)CC(c2ccccc2)c2ccc3c(c2)OCO3)n1 (stereo not given) | i
Cc1cc(N)c2ccccc2[n+]1CCCCCCCCCC[n+]1c(C)cc(N)c2ccccc21 | +
CCOC(=O)c1cc2n(n1)CC(C)(C(=O)NC1CCCCCC1)N(Cc1ccccc1OCC)C2=O (stereo not given) | i
O=C1NC(Nc2ccccc2)=N/C1=C\c1ccc2c(c1)OCO2 | ?
COc1ccc(CC(=O)N[C@H](C)c2onc(C)c2C(=O)O)cc1 | i
Cc1nc(Cn2ccnc2-c2cn(C3CCNCC3)nn2)cs1 | i
Cc1ccc(CCN2C(=O)CSc3c(c4ccccc4n3C)C2C(=O)NCc2ccc(F)cc2)cc1 (stereo not given) | i
COC(=O)c1cc2n(n1)CC(C)(C(=O)NC1CCCCC1)N(c1cc(C)cc(C)c1)C2=O (stereo not given) | i
CCc1ccc(S(=O)(=O)c2nnn3c2nc(N2CCN(CC)CC2)c2cc(Cl)ccc23)cc1 | i
COc1ccc(NS(=O)(=O)c2ccc3[nH]c(=O)[nH]c3c2)cc1OC | i
CC(C)C1c2cccn2CCN1C(=O)Nc1ccc(F)c(Cl)c1 (stereo not given) | i
CC1=CC(=O)CC(C)(C)C1CO[C@@H]1O[C@H](CO)[C@@H](O)[C@H](O)[C@H]1O (stereo not given in full) | i
CCN1CCN(c2nc3c(S(=O)(=O)c4ccccc4)nnn3c3ccccc23)CC1 | i
CCOc1ccc(CNS(=O)(=O)c2cc3[nH]c(=O)[nH]c3cc2C)cc1OC | i
CCC(C)NC(=O)c1ccc2c(=O)n(C3CC3)c3nn(CC(=O)NCc4ccccc4)c(=O)n3c2c1 (stereo not given) | i
CC(C)(C)C(=O)NCCNC(=O)c1cccc(-c2ccc(C(F)(F)F)cc2)c1 | i
CC(C)C(=O)N1CCn2c(nnc2C2CCN(Cc3cc(Cl)ccc3F)C2)C1 (stereo not given) | i
COc1ccc(N2Cc3c(NCCc4ccccc4F)ncnc3N(C)CC2=O)cc1 | i
CCCCOc1ccccc1-c1cc2n(n1)CC(C)(C(=O)NC1CCCCC1)N(CCCOC)C2=O (stereo not given) | i
CN(C(=O)CC(c1ccccc1)c1ccc(Cl)cc1)C1CCOCC1 (stereo not given) | i
COc1cc([C@H]2OC[C@]3(OC(C)=O)[C@@H](c4ccc(O[C@@H]5O[C@H](CO)[C@@H](O)[C@H](O)[C@H]5O)c(OC)c4)OC[C@H]23)ccc1O | ?
Cc1ncsc1CN1CCC2(CC1)CC(CC(=O)NCc1ccncc1)CCO2 (stereo not given) | i
C=C1[C@H](OC(C)=O)[C@H]2[C@@H](OC(C)=O)[C@](C)(OC(C)=O)C[C@]2(OC(C)=O)C(=O)[C@H](C)/C=C/C(C)(C)C(=O)[C@H](OC(=O)C(C)CC)[C@H]1OC(C)=O (stereo not given in full) | i
Cc1ccc(C)c(Cn2nc3n(C(C)C)c(=O)c4ccc(C(=O)NC5CCCCC5)cc4n3c2=O)c1 | i
Cc1ccccc1NC(=O)CSc1nnc2n(CC(C)C)c(=O)c3ccc(C(=O)NCC(C)C)cc3n12 | i
CCCN1C(=O)c2c(C(=O)Nc3cccc(Cl)c3)ncn2CC1(C)C(=O)NCc1ccc(OC)cc1 (stereo not given) | i
CN(C)CC(O)c1cc2n(n1)CCCN(C(=O)c1cccn1C1CC1)C2 (stereo not given) | i
CS(=O)(=O)c1cccc(CNc2nc(Nc3ccc4c(c3)CCC(=O)N4)ncc2C(F)(F)F)c1 | +
C[S+](=O)([O-])c1ccc(-c2cc(C(=O)N3CCOCC3)nn3cccc23)cc1 | i
CC1CCC(NC(=O)C2(C)Cn3c(ccc3-c3ccccc3)C(=O)N2CCC2=CCCCC2)CC1 (stereo not given) | i
Cc1ccc(N2C(=O)c3cc(-c4cccs4)nn3CC2(C)C(=O)NC2CCCCCC2)cc1 (stereo not given) | i
C=Cc1ccc(Cn2nc3n(CCC)c(=O)c4ccccc4n3c2=O)cc1 | i
COc1ccc(OC)c(NC(=O)Cn2c(=O)oc3cc(S(=O)(=O)NCc4ccccc4)ccc32)c1 | i
CC(C)NC(=O)C1CCc2nnc(C(C)(C)C)n21 (stereo not given) | i
Clc1ccc(-c2csc(NN=C3CCCC3)n2)cc1 | +!
Cc1ccc(C)c(N2CCN(C(=O)c3cc4n(n3)CC(C)(C(=O)NC3CCCC3)N(C)C4=O)CC2)c1 (stereo not given) | i
Cc1ccc(CNC(=O)c2cc3n(n2)CC(C)(C(=O)NCc2ccc(F)cc2)N(C)C3=O)cc1 (stereo not given) | i
NC(=O)[C@H](Cc1ccccc1)NC(=O)[C@H](CCCN=C(N)N)NC(=O)C12CC3CC(CC(C3)C1)C2 | i
COc1cc2c(cc1OC)CN(CCc1ccc(NC(=O)c3cc(OC)c(OC)cc3NC(=O)c3cnc4ccccc4c3)cc1)CC2 | i
COc1ccccc1NC(=O)N1CCN2C(=O)NC[C@H]2C1 | i
COc1ccc(NC(=O)CCc2nnc3n(Cc4ccc(C)cc4)c(=O)c4ccccc4n23)cc1 | i
Cc1ccc(-c2cc(O)c3c(c2)CNCCO3)cc1 | i
C=C1C(OC(C)=O)CCC2(C)CCC(C(C)(C)O)CC12 (stereo not given) | i
COCCn1c(C)cnc1CCNS(=O)(=O)c1c(C)noc1C | i
CCCS(=O)(=O)N1CCC(c2noc(-c3cccnc3)n2)C1 (stereo not given) | i
CC1CCN(CCCNC(=O)CCc2nnc3n(Cc4ccccc4Cl)c(=O)c4ccccc4n23)CC1 | +
COc1ccc2cc3n(c2c1)CC(C)(C(=O)NC1CCCCCC1)N(CCCN1CC(C)CC(C)C1)C3=O (stereo not given) | i
O=C(NCc1ccc(F)cc1)c1ccc2c(=O)nc3c(-c4ccccc4F)n[nH]n3c2c1 | i
O=C(CCc1nnc2n(Cc3ccc(Cl)cc3)c(=O)c3ccccc3n12)NC1CCCCC1 | i
C/C=C(\C)C(=O)OC1C(C)C2(O)C(C=C(CO)CC3(O)C(=O)C(C)=CC32)C2C(C)(C)C12OC(=O)C(C)C (stereo not given) | i
CCc1ccccc1NC(=O)Cn1c(=O)oc2cc(S(=O)(=O)N3CCCC3)ccc21 | i
CC1(C)CC[C@]2(C(=O)O[C@@H]3O[C@H](CO)[C@@H](O)[C@H](O)[C@H]3O)CC[C@]3(C)C(=CCC4[C@@]5(C)CC[C@H](O[C@@H]6O[C@H](C(=O)O)[C@@H](O)[C@H](O[C@@H]7O[C@H](CO)[C@H](O)[C@H](O)[C@H]7O)[C@H]6O)C(C)(C)C5CC[C@]43C)C2C1 (stereo not given in full) | i
C=Cc1ccc(Cn2nc3n(CCC)c(=O)c4ccc(C(=O)NC5CCCC5)cc4n3c2=O)cc1 | i
CC(C)NC(=O)N1CC2ON=C(C(=O)N3CCOCC3)C2C1 (stereo not given) | i

Next section:
SMILES | Methyltransferases
CC1=CC2/C=C(\C)CCC(O)C(=O)C(O)CC(=O)C23C(=O)NC(CC(C)C)C3C1C (stereo not given) | i
O=C1Cc2c(-c3cc4ccccc4o3)n[nH]c2CN1Cc1ccccc1 | i
CCc1ccc(NC(=O)Cn2nc3n(c2=O)CCCC3)cc1 | i
CC1(C)CC[C@]2(C(=O)O[C@@H]3O[C@H](CO)[C@@H](O)[C@H](O)[C@H]3O)CC[C@]3(C)C(=CCC4[C@@]5(C)C[C@@H](O)[C@H](O)[C@@](C)(CO)C5[C@H](O)C[C@]43C)C2[C@@H]1O (stereo not given in full) | +
COCCOc1cc(C)c2c(c1C)C[C@H](C(C)C(=O)NCc1cccs1)CC2 (stereo not given in full) | i
CN1CC(=O)N/C1=N/C(=O)Nc1cccc(Cl)c1 | i
Cc1ccc(-n2nc(C(C)(C)C)cc2NC(=O)Nc2cc(COc3cccnc3)[nH]n2)cc1 | i
CCOC(=O)CNC(=O)N1Cc2c(sc3c2CCCC3)-n2cccc2C1c1cccc(C)c1 (stereo not given) | i
COc1ccc(CNC(=O)C2(C)Cn3cnc(C(=O)NCCc4ccccc4)c3C(=O)N2C2CC2)cc1 (stereo not given) | i
COc1ccc(N2CCN(C(CNS(=O)(=O)c3ccccc3)c3ccco3)CC2)cc1 (stereo not given) | i
COc1ccc(C2(C(=O)N3C[C@@H](Oc4cccnc4)C[C@H]3C(=O)NC3CC3)CC2)cc1 | i
CCOC(=O)c1cc2n(n1)CC(C)(C(=O)NC1CCCCCC1)N(Cc1ccc3c(c1)OCO3)C2=O (stereo not given) | i

A draw from above in order of number of heavy atoms, high to low:
SMILES | Methyltransferases
COc1ccc(CNC(=O)C2(C)Cn3cnc(C(=O)NCCc4ccccc4)c3C(=O)N2C2CC2)cc1 (stereo not given) | i
CCOC(=O)CNC(=O)N1Cc2c(sc3c2CCCC3)-n2cccc2C1c1cccc(C)c1 (stereo not given) | i
COc1ccc(N2CCN(C(CNS(=O)(=O)c3ccccc3)c3ccco3)CC2)cc1 (stereo not given) | i
CC1=CC2/C=C(\C)CCC(O)C(=O)C(O)CC(=O)C23C(=O)NC(CC(C)C)C3C1C (stereo not given) | i
O=C1Cc2c(-c3cc4ccccc4o3)n[nH]c2CN1Cc1ccccc1 | i
CCc1ccc(NC(=O)Cn2nc3n(c2=O)CCCC3)cc1 | i

Carrying on:
SMILES | Methyltransferases
CCC(C(=O)NCc1ccc(C)cc1)n1ccc2cc(S(=O)(=O)N3CCCCC3)ccc21 (stereo not given) | i
O=C1NCC2(CCN(C(=O)c3ccccc3C3CCNC3)CC2)O1 (stereo not given) | i
O=C(NCCc1ccncc1)C1CN(C(=O)C2CCCCC2)CC12CCOCC2 (stereo not given) | i
N#Cc1cccnc1-c1cccc(C(=O)NCCN[S+](=O)([O-])c2cccc(C(F)(F)F)c2)c1 | i
CCn1cc(C(=O)N2C[C@H](CO)C[C@H](CN3CCCC3)C2)c(C)n1 | i
Cc1c(CO)cccc1NC(=O)c1ccc(CN2CCCC(C)C2)cc1 (stereo not given) | i
COC(=O)c1ccnc(-c2cc(C(=O)Nc3ccc(C4(N)CC4)cc3)ccn2)c1 | ?
CCOC(=O)[C@H]1O[C@@H]1C(=O)N[C@@H](CC(C)C)C(=O)NCCC(C)C | i
Cc1ccc(NC(=O)c2cc3n(n2)CC(C)(C(=O)NC2CCCCCC2)N(C)C3=O)c(C)c1 (stereo not given) | i
Cc1ccsc1CCNC(=O)CCc1nnc2n(CCc3ccccc3)c(=O)c3ccccc3n12 | i
CN(C)Cc1cn(C[C@H]2C[C@@H](NS(=O)(=O)c3ccccc3)[C@H](O)[C@@H]2O)nn1 | i
Cc1cc2c(cc3n2CC(C)(C(=O)NC2CCCCCC2)N(C(C)CCc2ccccc2)C3=O)o1 (stereo not given) | i

Quoted at random: two compounds from above, in no set order.
SMILES | Methyltransferases
CCC(C(=O)NCc1ccc(C)cc1)n1ccc2cc(S(=O)(=O)N3CCCCC3)ccc21 (stereo not given) | i
CCOC(=O)[C@H]1O[C@@H]1C(=O)N[C@@H](CC(C)C)C(=O)NCCC(C)C | i

(cont.)
SMILES | Methyltransferases
CCCN1C(=O)c2c(C(=O)NCCc3ccc(C)cc3)ncn2CC1(C)C(=O)NCc1ccc(F)cc1 (stereo not given) | i
CCCn1c(=O)c2ccc(C(=O)NC(C)CC)cc2n2c(=O)n(CC(=O)c3ccc(OCC)cc3)nc12 (stereo not given) | i
Cc1ccc(C(=O)N2C[C@@H](C)[C@](O)(C3CC3)C2)s1 | i
N#Cc1cccnc1N1CCN(c2nccc(N3CCCC(O)C3)n2)CC1 (stereo not given) | i
O=C(NC1CC1)C1CCc2nnc(-c3cccnc3)n21 (stereo not given) | i
CC(C)Cn1c(=O)c2ccc(C(=O)NC(C)C)cc2n2c(SCc3ccc(F)cc3)nnc12 | i
Cc1cc2[nH]c(=O)[nH]c2cc1S(=O)(=O)NCc1ccccc1Cl | i
CCc1ccc(NC(=O)CSc2nnc3n(Cc4ccc(F)cc4)c(=O)c4ccccc4n23)cc1 | i
O=C(c1ccc(-c2noc(C3CC3)n2)cc1)N1CCC2(CCOCC2)CC1 | i
CCc1cc2c(cc3n2CC(C)(C(=O)NC2CCC(C)CC2)N(CCN2CCCCCC2)C3=O)s1 (stereo not given) | i
CCc1ccc(S(=O)(=O)c2nnn3c2nc(NCCCOC(C)C)c2cc(Cl)ccc23)cc1 | i
CN1C(=O)c2cc(C(=O)NCCCN3CCCCC3)nn2CC1(C)C(=O)NC1CCCCC1 (stereo not given) | i
CC1CCC2(C=O)C(CO)=CCCC2C1(C)CC(=O)O (stereo not given) | ?
CC(C)(C)c1cc2n(n1)CC(C)(C(=O)NC1CCCCC1)N(CCCc1ccccc1)C2=O (stereo not given) | i
